VACV mCherry inh = vaccinia inhibition (mCherry reporter). Vaccinia virus mCherry reporter infection, fluorescence; about a quarter of the inactives have no number. Potency, µM (doses to about 36.5 µM), inactives show at the highest dose activity change, negative = inhibition, most hits filed as inhibitors. 310,000 compounds, 0.63% hits. AID 720579; active = well fitted inhibition curve with a large enough effect; inconclusive = small, poorly fitted or top-dose-only effect; inactive = no such curve, though single readings can be large or run the other way; tested in A549 cells; also: nearly all actives have a fitted effect of over 35% in size; inactives centre near -10
VACV Venus inh = vaccinia inhibition (Venus reporter). Potency, µM (highest dose often 36.5 µM), inactives show at the top dose activity change, negative = inhibition, usual class: inhibitors. 330,000 compounds, 0.46% hits. Vaccinia virus Venus reporter expression, fluorescence; active means well fitted inhibition curve with a large enough effect; inconclusive means small, poorly fitted or top-dose-only effect; inactive means no such curve, though single readings can be large or run the other way; tested in A549 cells; also: nearly all actives have a fitted effect of over 30% in size; inactives centre near -10
* hit, by the source's call; i = inactive; ? = inconclusive; nt = not tested or not shown; & = joins results of further samples; [ ] = remark or other dose. % is scaled to controls: 0 for no effect and ±100 for the full control effect; potency is read from the fitted curve at half-maximal effect.

cpd	canonical_smiles	VACV mCherry inh	VACV Venus inh
1	COc1ccc(NC(=O)/C(C#N)=C/c2ccc(OCc3ccccc3F)cc2)cc1	-0.5%	-4.6%
2	O=C(N/N=C/c1coc2ccccc2c1=O)c1cc(Br)c(O)c(Br)c1	-6.4%	-11.8%
3	COc1ccc(NC(=O)Cn2cnc3c(oc4ccccc43)c2=O)cc1OC	-0.6%	-6.6%
4	CCN(CCCNC(=O)c1ccc(N2CCCC2=O)cc1)c1cccc(C)c1	?	-19.6%
5	CCOC(=O)c1ccccc1NC(=O)CSc1cn(CC(=O)N2CCCCC2)c2ccccc12	-9.3%	-3.7%
6	CSC1=NC(=O)/C(=C\c2cccc3ccccc23)S1	-16.0%	-11.2%
7	CCCCn1c2c(c(=O)n(C)c1=O)C(c1ccc(OC)cc1)N1CCCCCC1=N2 (stereo not drawn)	-21.7%	-9.5%
8	CC(=O)C1=C(C)OC(N)=C(C#N)C1c1cccc2ccccc12 (stereo not drawn)	-17.2%	-8.2%
9	CCCNC(=O)C1(C)CCN(C(=O)c2ccc3sccc3c2)C1 (stereo not drawn)	i	-5.3%
10	COc1ccc(-n2cc(-c3ccccc3)c3c(N4CCCC(C)C4)ncnc32)cc1 (stereo not drawn)	-6.6%	-4.5%
11	COc1ccc(N(CC(=O)NC2CC3CCC2C3)S(=O)(=O)c2ccc(C)cc2)cc1Cl (stereo not drawn)	i	?
12	O=C(OCCN1CCOCC1)C(c1ccccc1)c1ccccc1	-28.1%	-11.6%
13	COc1ccc(CCNC(=O)C2CC3Cn4c(nc5ccccc54)C3N2C)cc1 (stereo not drawn)	-5.5%	-6.9%
14	CC(C)CN(CC(C)C)c1ccc(/C=C/c2ccnc3ccccc23)cc1	20.2%	41.1%[activator]
15	CN(C(=O)c1ccco1)c1nc(-c2ccc(F)cc2)cs1	-13.0%	-1.2%
16	CCN1CCC(N(Cc2ccc3c(c2)OCO3)C(=O)Nc2ccc(Br)c(C)c2)CC1	-17.2%	-21.5%
17	Cc1cccc(CSc2nc3[nH]ncc3c(=O)[nH]2)c1	i	-15.7%
18	Cc1ccc(Nc2nc(-c3ccccc3)nc3ccccc23)cc1	-12.1%	-7.1%
19	CC(=C(CCOP(=O)(O)O)SC(=O)c1ccccc1)N(C=O)Cc1cnc(C)nc1N	i	-11.2%
20	Cc1sc2nc(CN3CCOCC3)nc(Cl)c2c1C	-6.1%	-26.4%
21	O=C(CN1CCN(C(=O)c2c(F)cccc2F)CC1)Nc1ccccc1F	nt	-12.2%
22	O=C(N/N=C\CCc1ccccc1)c1ccco1	-16.5%	-15.2%
23	COc1cc(/C=C/[N+](=O)[O-])ccc1OC(=O)c1cc2ccccc2oc1=O	-3.6%	-15.8%
24	Cc1ccc(S(=O)(=O)NC(C)(C)CN2CCNCC2)cc1	-18.2%	-8.0%
25	CCCN1CNc2c(c(=O)[nH]c(=S)n2CCc2ccc(C)cc2)C1	i	-6.0%

cpd	canonical_smiles	VACV mCherry inh	VACV Venus inh
26	CC(=O)c1ccc(CCCCc2ccc(C(C)=O)cc2)cc1	i	4.8%
27	COCc1cc(C)nc(SCC[N+](C)(C)CC(=O)Nc2cccc(C)c2)c1C#N	-3.1%	2.1%
28	CC1CCN(C(=O)CC(NC(=O)c2ccccc2Cl)c2ccccc2)CC1 (stereo not drawn)	-1.8%	-14.1%
29	COc1cccc(CNCCc2c[nH]c3ccccc23)c1OCc1ccc(F)cc1	?	?
30	O=C(CCS(=O)(=O)c1ccc(F)cc1)Nc1nnc(-c2ccc(F)cc2)o1	10µM*	?
31	Cc1ccc(-n2ncc3c(NCCCn4ccnc4)ncnc32)c(C)c1	i	-15.1%
32	CC(OC(=O)CCCC(=O)Nc1ccccc1)C(=O)c1ccccc1 (stereo not drawn)	-6.5%	-9.4%
33	COc1ccc(-n2nc3ccc(NC(=O)c4ccc(-c5cc(Cl)ccc5Cl)o4)cc3n2)cc1	i	-12.3%
34	Cc1c(OC(C(=O)O)c2ccccc2)ccc2c(-c3ccccc3)cc(=O)oc12 (stereo not drawn)	i	-4.1%
35	O=C(CN1C(=O)C(=O)N(C2CCCC2)C1=O)Nc1ccc(Cl)cc1C(F)(F)F	-19.4%	-10.4%
36	COc1cc(C(=O)NC2CC2)cc(OC)c1OC	0.2%	-4.5%
37	COc1ccc(C(=O)N2CCN(c3ccc(C)c(C)c3)CC2)cc1OC	-9.4%	3.9%
38	CCCCN1CC[C@H]2C=CC[C@@H](C(=O)NC3CCCCC3)[C@H]2C1=O	i	-18.5%
39	FC(F)(F)c1cccc(NC(=S)Nc2ccc(Cl)cc2Cl)c1	nt	?
40	CCC1CO/C(=C(\C(Cl)=C(Cl)Cl)[N+](=O)[O-])N1 (stereo not drawn)	?	?
41	CC(=O)Oc1ccc(-c2nc3c(C)cccc3c(=O)o2)cc1	-13.6%	-12.9%
42	NC(=O)c1ccsc1NC(=O)COC(=O)c1cc(=O)[nH]c2ccccc12	-14.6%	-8.4%
43	COc1cccc(S(=O)(=O)Nc2ccc3c(c2)[C@H]2C[C@H](CC(=O)N[C@@H](C)c4ccccc4)O[C@H](CO)[C@H]2O3)c1	-17.1%	-25.6%
44	COc1ccccc1C(=O)NC(CCSC)C(=O)OC(C)C(=O)NC1CC1 (stereo not drawn)	-13.8%	-7.1%
45	CN1/C(=C/C(=O)COC(=O)C2COc3ccccc3O2)C(C)(C)c2ccccc21 (stereo not drawn)	-13.2%	6.9%
46	COc1cc(-c2noc(C)c2/C=C/c2cccc([N+](=O)[O-])c2)cc(OC)c1OC	?	-26.0%&-15.1%
47	CCC(C)NC(=O)C1=C(C)C(=O)OC12CCC(C)CC2 (stereo not drawn)	10.2%	3.7%
48	CC1CCCN(c2cc3c(cc2F)c(=O)c(S(=O)(=O)c2cccc(Cl)c2)cn3Cc2ccccc2)C1 (stereo not drawn)	0.0%	-16.3%
49	O=C1/C(=C/c2ccccc2)CCCc2ccccc21	-15.6%	-8.7%
50	CCOc1ccc(C2C(=O)N(C3CCCCCC3)CC(=O)N2CCC2=CCCCC2)cc1OC (stereo not drawn)	-8.5%	-8.4%

cpd	canonical_smiles	VACV mCherry inh	VACV Venus inh
51	CCC(=O)N1CCc2cc(Br)cc(S(=O)(=O)N3CCCC(C(=O)NCc4ccc(F)cc4)C3)c21 (stereo not drawn)	-4.7%	-0.1%
52	O=S(=O)(c1ccc2c(c1)CCCC2)N1CCN(c2nc(-c3ccccc3)nc3ccccc23)CC1	-12.6%	-9.8%
53	Cc1nc(SCC(=O)NCc2ccco2)[nH]c(=O)c1C	i	-10.5%
54	CC(C)(C)NC(=O)c1ccc2c(c1)N(CC(=O)NC1CCCC1)C(=O)C(C)(C)O2	-11.6%	5.8%
55	CC1(OC(=O)C2CCCC2)C(=O)C=C2C=C(c3ccsc3)N(C3CC3)C=C2C1=O (stereo not drawn)	-15.4%	-9.1%
56	O=C(CS(=O)(=O)c1ccc(F)cc1)Nc1nnc(-c2ccccc2Cl)o1	-11.9%	-1.6%
57	CC12CCC(C(=O)n3c1nc1ccccc13)C2(C)C (stereo not drawn)	-20.6%	-12.6%
58	CN(C)C(=O)c1cc2c(c(-c3cccc(-c4ccccc4F)c3)n1)[C@@H](CCO)N(S(C)(=O)=O)C2	-6.8%	-5.2%
59	CCCC1NC(=O)c2cc3ccccc3cc2-n2c1nc1ccc(F)cc1c2=O (stereo not drawn)	?	?
60	CC(O)CNc1nc2sc3c(c2c(=O)n1Cc1ccco1)CCCCC3 (stereo not drawn)	-15.2%	-4.1%
61	Cc1nn(-c2nnc(C)c(=O)[nH]2)c(C)c1SCC(=O)Nc1ccc(C(C)C)cc1	nt	5.2%
62	CCc1cccc(CC)c1NC(=O)COC(=O)C1(c2ccc(Cl)cc2)CCCC1	i	-13.5%
63	Cc1ccccc1N1CCN(C(=O)c2cc(-c3ccccc3)nc3c2cnn3C(C)C)CC1	i	-13.7%
64	COc1ccc(O)c(CN2CCCC(C(=O)c3sccc3C)C2)c1 (stereo not drawn)	-5.6%	0.1%
65	O=C(c1cc(F)ccc1F)C1CCCN(Cc2ccc3nonc3c2)C1 (stereo not drawn)	-10.6%	-13.0%
66	O=C(c1cnc2ccccc2n1)N1CCN(c2ccc(C(F)(F)F)cn2)CC1	i	-5.3%
67	Cc1ccc(O)c(N=Nc2ccccc2)n1	i	-7.2%&-15.4%
68	COc1cc(/C=N/Nc2nc3c(c(=O)n(C)c(=O)n3C)n2Cc2ccccc2)ccc1OC(=O)c1ccco1	i	-11.7%
69	COc1ccc(-n2c(Cc3cccn3C)nnc2SCC(=O)Nc2ccc(C(C)=O)cc2)cc1	-5.7%	3.3%
70	Cc1ccc(CNS(=O)(=O)c2c(C)nc3sc(C)cn3c2=O)cc1	-10.5%	-6.4%
71	CCn1c(-c2ccccc2F)nc2cc(NC(C)=O)cc(C(=O)N3CCNC(=O)C3CC(=O)OC)c21 (stereo not drawn)	-13.8%	-9.6%
72	CCOc1ccc(CN2CCN(Cc3ccon3)CC2CCO)cc1 (stereo not drawn)	i	-4.5%
73	COc1ccccc1N1CCN(CC(=O)Nc2ccnn2C2CCCC2)CC1	-21.7%	-14.4%
74	Cc1ccc(CCNC(=O)CCSCc2ccc(Cl)cc2)cc1	-5.4%	-14.7%&-17.0%
75	Cn1c(O)c(N=NC(=O)c2ccccc2O)c2ccccc21	-15.5%	-12.8%

cpd	canonical_smiles	VACV mCherry inh	VACV Venus inh
76	Cc1cc(/C(N)=N/OC(=O)c2ccccc2Cl)no1	i	-0.8%
77	CCn1c(SCc2ccc([N+](=O)[O-])cc2)nnc1C(C)NC(=O)c1ccccc1Br (stereo not drawn)	7.3%	15.2%
78	O=C(CN1C(=O)c2ccccc2S1(=O)=O)NCCSc1ccccc1	-19.3%	-11.1%
79	Cc1ccc(S(=O)(=O)N(C)C)cc1NC(=O)COC(=O)c1ccc2c(=O)n3c(nc2c1)CCC3	-3.2%	-3.2%
80	Cc1cccc2sc(N(CCCN(C)C)C(=O)c3ccc(Cl)s3)nc12	-15.2%	6.4%&-12.6%
81	CCCSc1oc(-c2ccco2)nc1S(=O)(=O)c1ccc(Br)cc1	-10.0%	-8.8%
82	O=C(NNS(=O)(=O)c1ccc([N+](=O)[O-])cc1)c1ccc2ccccc2c1O	-6.6%	5.6%
83	O=C1NC2(CCCCC2)NN1c1ccccc1	-6.6%[1.46 µM]	-12.3%
84	COc1ccc(-n2c(C)c3c(C)nnc(C)c3c2C)cc1OC	?	-26.3%
85	N#CCCC1CCCC=C1N(Cc1ccccc1)C(=O)C(Cl)Cl (stereo not drawn)	-14.0%	-14.3%
86	O=C1[C@@H]2[C@H](C(=O)N1O)[C@H]1C=C[C@@H]2C1	-9.3%[1.46 µM]	-3.1%
87	COc1ccc(NC(=O)Cn2c(=O)oc3cc(Cl)ccc32)c(OC)c1	-1.1%	0.7%
88	Cc1ccc(-c2nsc(NC(=O)c3oc4cc(C)c(Cl)cc4c3C)n2)cc1	-6.1%	-0.6%
89	COc1ccc(C(=O)NNC(=O)CSc2nc3c(c(=O)n(C)c(=O)n3C)n2C)cc1	i	-8.4%
90	O=C(Nc1noc2ccccc12)c1cccc(Cl)c1Cl	2.6%	-0.3%
91	CNC(=O)CO/N=C/c1ccc(N(C)C)cc1	i	-9.4%
92	O=C(N/N=C/c1ccc[nH]1)c1ccncc1	i	0.4%
93	CCOc1ccc(OCC)c(NC(=O)CSc2nc3c(c(=O)n(C)c(=O)n3C)n2CC)c1	-6.2%	-10.8%
94	COc1ccc(Cl)cc1NC(=O)Cn1c(NCCO)nc2ccccc21	-14.0%	2.4%
95	CCN(CC)C(=O)c1ccc2c(c1)N(Cc1c(F)cccc1Cl)C(=O)c1ccccc1S2	-12.4%	-10.6%
96	O=C(N/N=C/c1cccs1)c1c[nH]c2ccccc12	i	-20.6%
97	Oc1cc2c(cc1O)[C@@H](c1ccccc1)CNCC2	-14.6%	-6.5%
98	O=C(NNC(=S)Nc1ccc(Cl)c(Cl)c1)c1ccccn1	?	?
99	CC(=O)C1=C(O)C(=O)N(Cc2ccccc2)C1c1cccs1 (stereo not drawn)	-7.1%	0.6%
100	C/C=C(\C)C(=O)OC1CC(C)(C)C[C@H]2C3=CC[C@@H]4[C@@]5(C)CCC(O[C@@H]6O[C@@H](C(=O)O)[C@@H](O)C(O[C@@H]7OC[C@H](O)[C@@H](O)[C@@H]7O[C@@H]7OC(CO)C(O)[C@@H](O)[C@@H]7O)C6O[C@@H]6OC(CO)C(O)C(O)C6O)[C@@](C)(CO)[C@@H]5CC[C@]4(C)[C@]3(C)CC(O)[C@@]12CO (stereo partly drawn)	-8.4%	?

In the list so far, three contain a CF3 group.
cpd	canonical_smiles	VACV mCherry inh	VACV Venus inh
35	O=C(CN1C(=O)C(=O)N(C2CCCC2)C1=O)Nc1ccc(Cl)cc1C(F)(F)F	-19.4%	-10.4%
39	FC(F)(F)c1cccc(NC(=S)Nc2ccc(Cl)cc2Cl)c1	nt	?
66	O=C(c1cnc2ccccc2n1)N1CCN(c2ccc(C(F)(F)F)cn2)CC1	i	-5.3%

(further entries)
cpd	canonical_smiles	VACV mCherry inh	VACV Venus inh
101	CC(=O)N1CCOc2ccc(S(=O)(=O)NC[C@H]3O[C@@H](n4ccc(N)nc4=O)[C@H](O)[C@@H]3O)cc21	-18.0%	-11.2%
102	Cc1cccc(C)c1NC(=O)N1CCC(N2CCCCC2)CC1	-14.1%	-12.7%
103	CC(C)NC(=O)NC(=O)COC(=O)c1ccc(S(=O)(=O)Nc2ccccc2)cc1	i	-4.8%
104	O=C(O)c1cn(-c2ccccc2)nc1C(=O)O	nt	-13.2%

Screen by screen, quoted from above:
VACV Venus inh, entries 101 to 104: -11.2%, -12.7%, -4.8%, -13.2%

High-throughput results: PubChem, National Center for Advancing Translational Sciences (NCATS)
